Assay outcomes as filed in PubChem.
VDR inh: vitamin D3 receptor (human) inhibition | VDR-SRC2-3 peptide fluorescence polarization, 2 h | Potency, µM, for inactives: max response, negative = inhibition, hits mostly inhibitors | 400,000 compounds, 0.93% hits | AID 504847; active means well fitted inhibition curve with a large enough effect; inconclusive means small, poorly fitted or top-dose-only effect, or another doubt; inactive means no such curve, though single readings can be large or run the other way; further: series mostly up to about 120 µM
Target sequence (P11473 whole entry, looked up): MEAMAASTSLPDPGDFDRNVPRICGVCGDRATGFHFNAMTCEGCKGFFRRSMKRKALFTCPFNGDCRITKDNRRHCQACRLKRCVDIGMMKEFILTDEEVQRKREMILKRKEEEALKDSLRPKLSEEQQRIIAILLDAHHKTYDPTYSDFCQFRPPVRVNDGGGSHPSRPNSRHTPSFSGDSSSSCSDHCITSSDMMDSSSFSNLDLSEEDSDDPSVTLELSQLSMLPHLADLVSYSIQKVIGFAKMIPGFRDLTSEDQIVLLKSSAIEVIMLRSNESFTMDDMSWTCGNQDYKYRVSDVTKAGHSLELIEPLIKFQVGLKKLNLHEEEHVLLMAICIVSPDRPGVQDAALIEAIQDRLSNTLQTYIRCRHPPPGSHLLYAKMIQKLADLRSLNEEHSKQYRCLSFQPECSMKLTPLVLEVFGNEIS
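Signal is fluorescence polarization, reporting how far test compounds block the interaction of VDR with the SRC2-3 coregulator peptide after a 2 h room-temperature incubation.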
Active calls of the source: *; ? = inconclusive; & = joins results of further samples; ! = repeats disagree. On the % scale 0 is the no-effect control and ±100 the full control effect; potency means the concentration at half of the fitted maximal effect. An excerpt; count on the stated rates, not on these rows.

SMILES	VDR inh
CC(C)=CCOc1c2occc2cc2ccc(=O)oc12	?
CCOc1ccc(-n2c(O)c(N=Nc3c(C)n(C)n(-c4ccccc4)c3=O)c(=O)[nH]c2=O)cc1	10%
CC[C@@H](CO)NC(=O)[C@H]1C=C2c3cccc4c3c(cn4C)C[C@H]2N(C)C1	32µM*
N#Cc1ncc(N=Cc2ccc(N(CCCl)CCCl)cc2)s1	-4%
Cc1cccc(C)c1OCC(=O)Nc1ccc(Cl)cc1C(=O)c1ccccc1	-14%
COc1ccc(Cl)cc1NC1=NCC(C)S1 (configuration not stated)	-15%
Cc1ccc(C(=O)Nc2ccc(Cl)cc2C(=O)c2ccccc2)cc1	-5%
O=C(COc1ccccc1[N+](=O)[O-])N1CCN(CCc2ccccn2)CC1	5%
CNP(=S)(NC)OCCOc1ccc(OC)cc1	5%
N#CC1(N2CCCCC2)CCCCC1	0%
O=C(NCc1cccnc1)C(Cl)(Cl)Cl	5%
O=P1(Nc2cccnc2)COc2ccccc2OC1	-10%
CCOC(=O)C1(c2ccccc2)CCN(CCC(=O)Nc2ccc(C(=O)OC)cc2)CC1	-27%
CC(=O)N1CN2CN(C(C)=O)CC(C(=O)c3ccc([N+](=O)[O-])cc3)(C2)C1	10%
O=C(Nc1ccc2ccccc2c1)N1C[C@H]2C[C@@H](C1)c1cccc(=O)n1C2	-8%
CCOc1ccc2[nH]c(=O)c(CN(CCO)C3(c4nnnn4C4CCCCC4)CCCCC3)cc2c1	-1%
CN(C)c1ccc(/C=C2\C(=O)NC(=O)N(CCc3ccc(F)cc3)C2=O)cc1	40µM*
N#CC1(c2ccccc2)CCN(C2CC(=O)N(c3ccc4c(c3)OCO4)C2=O)CC1 (configuration not stated)	-7%
CC(C)N(CC[C@@](C(N)=O)(c1ccccc1)c1ccccn1)C(C)C	1%
O=C1CN=C(c2ccccc2)c2cc(Cl)ccc2N1Cc1ccc(Cl)cc1	-3%
O=C1/C(=C\c2ccc(Cl)cc2Cl)N2CCC1CC2	-15%
Cc1c(N=Cc2c(O)n(CCc3ccc(F)cc3)c(=O)[nH]c2=O)c(=O)n(-c2ccccc2)n1C	-18%
[O]=[Cd]	0%
CN1C(=O)C(Cc2cccc3ccccc23)C(=O)N(C)C1=O	?
CN1CCN(c2ccc(C=O)cc2)CC1	-1%

Going on with the list:
SMILES	VDR inh
COc1ccc(-n2nc(C(=O)NCC(=O)N3CCC4(CC3)OCCO4)c3ccccc3c2=O)cc1OC	22%
O=C(O)c1cccc(N=Nc2c(O)[nH]c(=O)[nH]c2=O)c1	-9%
C[C@@H](Cc1cccc(C(F)(F)F)c1)NCCCc1ccccc1	-20%
CCOP(=O)(OCC)C(C)(C)NC(=O)C(Cl)(Cl)Cl	-8%
CC(CN(C)C1CCN(C)CC1)c1ccccc1 (configuration not stated)	-2%
O=C(O)[C@@H]1Cc2[nH]cnc2C(c2cccnc2)N1 (some centres not stated)	-3%
Cc1ccc(-c2nnc(Nc3ccc(O)cc3)c3ccccc23)cc1S(=O)(=O)N1CCOCC1	?
CCOc1ccc(CN(CCc2ccc3c(c2)OCO3)Cc2cccc(Br)c2)cc1	7%
CCOC(=O)C1(CCOc2ccccc2)CCN(C2Cc3ccccc3C2)CC1	-23%
COc1ccc(C=C2C(=O)N(C)C(=O)N(C)C2=O)cc1COc1ccc(NC(C)=O)cc1	4%
O=P(Oc1ccccc1)(Oc1ccccc1)c1ccccc1	?
N[C@@H](Cn1oc(=O)[nH]c1=O)C(=O)O	-6%&2%&6%&3%
CN1C(=O)N(C)C(=O)C2(Cc3ccccc3N3CCOCC32)C1=O (configuration not stated)	3%
CCOC(=O)C(O)(c1ccc(NC(=O)c2ccc(Cl)c(Cl)c2)cc1)C(F)(F)F (configuration not stated)	-21%
O=c1[nH]c(=O)n(C2CCCCC2)c(O)c1/C=N/N1CCCCC1c1cccnc1 (configuration not stated)	-9%
O=C1c2cccc3cccc(c23)C(=O)N1/N=C/c1c(O)n(-c2ccccc2)c(=O)[nH]c1=O	-23%
CN1C2CCC1CC(C(=O)OC(CO)c1ccccc1)C2 (configuration not stated)	-1%
CCOC(=O)C1(CCc2ccccc2)CCN(CC(O)CO)CC1 (configuration not stated)	7%
c1cncc(C2Nc3cccc4cccc(c34)N2)c1	-6%
CC(O)C1C=CC=CC(=O)OC2CC3OC4C5OC5(C)C(O)CC4(COC(=O)C(O)C(C)CCO1)C2(C)C31CO1 (configuration not stated)	8%
CC(=O)OC(C)(C)/C=C/C(=O)C(C)(O)C1C(O)CC2(C)C3CC=C4C(CC(O)C(=O)C4(C)C)C3(C)C(=O)CC12C (configuration not stated)	-27%
Cc1c2cnn(CC(=O)N3CCC4(CC3)OCCO4)c(=O)c2c(C)n1Cc1ccccc1F	10%
CCc1nc2ccccc2c(=O)n1-c1ccccc1[N+](=O)[O-]	2%
C(#CCN1CCOCC1)COC/C=C/c1ccccc1	10%
Cn1c(=O)cc(OCC(=O)N2CCN(Cc3ccc4c(c3)OCO4)CC2)c2ccccc21	9%

Copied from the list:
In VDR inh, CCOc1ccc(CN(CCc2ccc3c(c2)OCO3)Cc2cccc(Br)c2)cc1 has the entry 7%
In VDR inh, O=C(O)c1cccc(N=Nc2c(O)[nH]c(=O)[nH]c2=O)c1 has the entry -9%

Following part
SMILES	VDR inh
O=[N+]([O-])[N-][n+]1cnn(Cc2ccc(Cl)cc2)c1	5%
CO[C@@H](C)[C@](O)(C(=O)OCC1=CCN2CC[C@@H](O)[C@H]12)C(C)C	3%
CCOP(=O)(OCC)C(NC(C)=O)C(Cl)(Cl)Cl (configuration not stated)	3%
COc1cc(CN2CCCC(C(=O)c3sccc3C)C2)cc(OC)c1O (configuration not stated)	-6%
CC1(C)CC(n2[nH]c(=O)c3c2NC(=O)CSC3c2ccc(F)cc2)CCO1 (configuration not stated)	2%
CC(=O)OC1CC(OC2C(O)CC(OC3C(O)CC(OC4CCC5(C)C(CCC6C5CCC5(C)C(C7=CC(=O)OC7)C(O)CC65O)C4)OC3C)OC2C)OC(C)C1OC1OC(CO)C(O)C(O)C1O (configuration not stated)	15%
CCC1(CC(C)C)C(=O)NC(=S)NC1=O	2%
Cc1cccc(CN2CCCC(C(=O)c3ccc4c(c3)OCO4)C2)n1 (configuration not stated)	0%
CCCN1CCc2cccc3c2C1Cc1ccc(O)c(O)c1-3 (configuration not stated)	-1%
COC(=O)C1=C(c2ccc(-c3ccccc3)c(F)c2)C[C@@H]2CC[C@H]1N2C(=O)N1CCc2cc(OC)c(OC)cc2C1	4%
O=NN1CCCC1c1cccnc1 (configuration not stated)	11%
CCN(CC)S(=O)(=O)c1ccc(C)c(NCC(=O)Nc2ccc(C#N)c(Cl)c2)c1	8%
Cc1cccc(-n2c(/C=C\c3cccc(Br)c3)nc3ccccc3c2=O)c1	5%
CC(=O)N1Cc2cnnn2-c2ccccc2C1(C#N)Cc1ccccc1 (configuration not stated)	-17%
O=C1NC(=O)N(Cc2ccco2)C(=O)/C1=C\c1cccn1CCOc1ccccc1	-27%
O=C(c1cc2ccccc2oc1=O)N1CCC2(CC1)OCCO2	-12%
CC(C)OCCCNC(=O)c1c(N)n(Cc2cccs2)c2nc3ccccc3nc12	-5%
CCC(C#N)(CC)P(=S)(c1ccccc1)c1ccccc1	1%
COC(=O)C(O)(c1ccc(N(C)C(=O)COc2ccccc2)cc1)C(F)(F)F (configuration not stated)	-23%
CNC(=O)c1cccn(Cc2ccc(C(F)(F)F)cc2)c1=O	6%
C=CCn1c(O)c(C=NCCN2CCNCC2)c(=O)[nH]c1=O	?
O=c1c2ccccc2nc(N2CCCC2)n1-c1ccccc1	-3%
Cc1ccc(C(=O)N2CC2C)cc1 (configuration not stated)	6%
COc1ccc(CN2CCCC(C(=O)c3ccc(Cl)cc3)C2)c(OC)c1 (configuration not stated)	?
O=C(N[C@H]1CN2CCC1CC2)c1ccc(Cl)cc1	0%&2%

In the list so far, three contain a COOH group:
SMILES	VDR inh
O=C(O)c1cccc(N=Nc2c(O)[nH]c(=O)[nH]c2=O)c1	-9%
O=C(O)[C@@H]1Cc2[nH]cnc2C(c2cccnc2)N1 (some centres not stated)	-3%
N[C@@H](Cn1oc(=O)[nH]c1=O)C(=O)O	-6%&2%&6%&3%

Gathered by group: the entries above containing bromine (two)
SMILES	VDR inh
CCOc1ccc(CN(CCc2ccc3c(c2)OCO3)Cc2cccc(Br)c2)cc1	7%
Cc1cccc(-n2c(/C=C\c3cccc(Br)c3)nc3ccccc3c2=O)c1	5%

Carrying on:
SMILES	VDR inh
COc1cc(C(=O)OC2C[C@H]3CC[C@@H](C2)N3)ccc1O (some centres not stated)	-28%
O=c1c2ccccc2nc(-c2ccoc2)n1-c1ccccc1	-9%
Cc1ccc(-c2nc(CN3C(=O)CN=C(c4ccccc4)c4ccccc43)c(C)o2)cc1	14%
CC(C)OC(=O)c1c(N)n(CC2CCCO2)c2nc3ccccc3nc12 (configuration not stated)	-17%
COc1ccc(CC2C(=O)N(C)C(=O)N(C)C2=O)c(OC)c1	?
O=C(O)/C=C\CO	-3%
O=P(Oc1ccccc1)(Oc1ccccc1)C(O)c1ccc(Cl)cc1 (configuration not stated)	-6%
O=C(O)C1C2CCC(O2)C1C(=O)NC1CCCCC1 (configuration not stated)	9%
CCCCOC(=O)COc1cc(C)cc2oc(=O)c3c(c12)CCC3	-2%
Cc1ccc(OCC(=O)Nc2ccc(Cl)cc2C(=O)c2ccccc2)cc1C	-16%
C=C(C)[C@H]1CN[C@H](C(=O)O)[C@@H]1CC(=O)O	11%
CCOc1ccc(NC(=O)c2c(O)[nH]c(=O)[nH]c2=O)cc1	-12%
CCNc1nc(Cl)nc(NCC)n1	3%
CCOP(=O)(CN(CC)CCNP(=O)(OCC)OCC)OCC	6%
CN1C(CC(=O)c2ccccc2)CCCC1CC(O)c1ccccc1 (configuration not stated)	89µM*!
O=C(c1cc(-c2ccccc2)nc2ccccc12)N1CCC2(CC1)OCCO2	5%
Cc1cc(OCC(=O)NCC(O)c2ccccc2)c2c3c(c(=O)oc2c1)CCCC3 (configuration not stated)	4%
O/N=C1/C(=C\c2ccccc2)N2CCC1CC2	-1%
Cc1sc2ncn(CC(=O)NCC(=O)N3CCC4(CC3)OCCO4)c(=O)c2c1C	3%
Cc1cc(OC(=O)CCCNC(=O)OC(C)(C)C)c2c3c(c(=O)oc2c1)CCC3	13%
O=P(CN1CCN(c2ccccc2)CC1)(N1CCCCC1)N1CCCCC1	15%
Nc1c(Br)cc([N+](=O)[O-])cc1[N+](=O)[O-]	-7%
Cc1ccc(-n2c(O)c(C=Nc3ccc(S(=O)(=O)N(C)C)cc3)c(=O)[nH]c2=O)cc1	-15%
CC(C)NCC(O)c1ccc(C2CCCC2)cc1 (configuration not stated)	-13%
CC(=NCc1ccco1)c1c(O)n(-c2ccc(Cl)cc2)c(=O)[nH]c1=O	-8%

(continued)
SMILES	VDR inh
O=C(C[N+]12CCN(CC1)CC2)NCCc1ccc(Cl)cc1Cl	8%
CCOC(=O)C(NC(=O)CC)(Nc1ccc(C(O)(C(=O)OCC)C(F)(F)F)cc1C)C(F)(F)F (configuration not stated)	-2%
CCCCn1c(NS(=O)(=O)c2ccc(C)cc2)c(C(=O)OCC)c2nc3ccccc3nc21	?
COc1ccc(CCNC(C)CCc2ccc(OC)cc2)cc1 (configuration not stated)	-11%
C[N+]12CCC(CC1)C(C(O)(c1ccccc1)c1cccs1)C2 (configuration not stated)	8%
Cc1ccc2c(c1)NP(=S)(Oc1ccccc1)N2 (configuration not stated)	-12%
CN(C)C(=S)SC(=S)N(C)C	28µM*
Cc1oc(-c2ccc(Cl)cc2)nc1CN1C(=O)CN=C(c2ccccc2)c2cc(Cl)ccc21	17%
CCC(CO)(C(=O)OC1C[N+]2(C)CCC1CC2)c1ccccc1 (configuration not stated)	7%
CCc1c(C)nc(N)nc1N1N=C1SC	-3%
C=CC[C@]1(O)CCC2C3CCC4=CCCCC4C3CCC21C (some centres not stated)	-11%
CCCNc1nc(OC)nc(N2CC3CC(C2)c2cccc(=O)n2C3)n1 (configuration not stated)	17%
Cc1ccccc1NS(=O)(=O)c1ccc(OCC(=O)N2CCN(C)CC2)cc1	-2%
Cc1cc(Br)c(NC(=O)CN2CC=C(c3ccccc3)CC2)c(Br)c1	3%
CCCCn1c(O)c(C(CC)=NCCCn2ccnc2)c(=O)[nH]c1=O	-7%
Cc1ccc(CN2CCCN(Cc3ccc(C)cc3)S2(=O)=O)cc1	8%
CCC(CC)C1C(C#N)=C(N)Oc2c1c(=O)oc1ccccc21 (configuration not stated)	-8%
CCN(CC)C(=O)c1ccc(NC(=O)Cn2nc(-c3ccc(C)cc3)c3ccccc3c2=O)cc1	15%
CCCCn1c(=O)c(C(=O)NCc2ccccc2OC)c(O)c2ccccc21	2%

Filtered by structure, those above with a thiophene ring, fused or not.
SMILES	VDR inh
COc1cc(CN2CCCC(C(=O)c3sccc3C)C2)cc(OC)c1O (configuration not stated)	-6%
CC(C)OCCCNC(=O)c1c(N)n(Cc2cccs2)c2nc3ccccc3nc12	-5%
Cc1sc2ncn(CC(=O)NCC(=O)N3CCC4(CC3)OCCO4)c(=O)c2c1C	3%
C[N+]12CCC(CC1)C(C(O)(c1ccccc1)c1cccs1)C2 (configuration not stated)	8%
